# HIV TAR-Tat: TAR RNA-Tat peptide displacers, HIV-1, primary screen, biochemical, FRET, FAM/TAMRA-labeled Tat. 0.6% of 100,000 active. z-score (no concentration beside the values). HIV-1 TAR RNA, Tat peptide displacement FRET; active compounds read high;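 also: score is relative to mean and SD of negative controls; some compounds called inactive have numbers as strong as hits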
# CDC25B CDK2 inh: primary biochemical HTRF screen for blockers of M-phase inducer phosphatase 2 binding to CDK2/cyclin A. HTRF CDC25B-CDK2/CyclinA binding, anti-His/anti-Flag; active compounds read high. z-score (test concentration not listed). 0.72% of 94,000 active;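 also: score is relative to mean and SD of negative controls; strong numbers were not always called active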
# The depositor's hits bear a star; . = not tested or not shown.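 The calls were made as follows: active = z-score from 3 up in half or more of its runs; inactive = the rest.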
# Screens in order – HIV TAR-Tat, CDC25B CDK2 inh
CCCN(CCS(=O)(=O)N1CCNCC1)S(=O)(=O)c1ccc(F)cc1
  0.48, .
COc1ccc(OC)c(NC(=O)Nc2nnc(N3CCCC(C)C3)s2)c1 (configuration not stated)
  0.4, -2.66
O=C1c2ccccc2C(Nc2ccc(Cl)cc2)N1c1ccccn1 (configuration not stated)
  1.28, 0.1
Cc1nc(N2CCOCC2)c2c(C(=O)N3CCN(c4ccccc4F)CC3)c(C)oc2n1
  0.67, .
NS(=O)(=O)c1ccc(CCNC(=O)c2cccn3c(=O)c4c5c(sc4nc23)CCCC5)cc1
  -6.1, .
Fc1ccc2c(c1)NC(c1ccncc1)=NC(c1ccc(Cl)cc1)=N2
  0.09, -1.37
O=C(c1cccs1)N1CCN(CCOc2ccccc2)CC1
  ., 4.28
CCSc1nc2c(c(=O)[nH]1)C(c1cccnc1)C1=C(CCCC1=O)N2 (configuration not stated)
  ., -0.06
CC(C)C(NC(=O)c1ccco1)c1nc(-c2ccc3c(c2)ncn3C2CCCC2)no1 (configuration not stated)
  1.21, .
CCc1nn(CCCC(=O)NC2CCCCC2)c(=O)c2cc3occc3n12
  3.19, -1.5
Cc1ccccc1-c1noc(CSc2nnc(-c3ccccc3)n2C)n1
  -1.96, -1.48
O=C(NCc1cccs1)C1CCCN(C(=O)N2CCOc3ccccc32)C1 (configuration not stated)
  1.52, .
Cc1cccc(CCNc2nc3ccccc3c3nc(CCn4nc(C)cc4C)nn23)c1
  -1.52, -0.38
Cc1ccc2c(c1)Cc1c(nc(-c3ccc(Br)cc3)[nH]c1=O)O2
  1.29, -2.48
COc1cc2[nH]c(=O)n3nc(CCn4nc(C)cc4C)nc3c2cc1OC
  1.44, -0.27

# 3 compounds already listed, ordered by formula weight, ascending.
# Screens in order – HIV TAR-Tat, CDC25B CDK2 inh
O=C(c1cccs1)N1CCN(CCOc2ccccc2)CC1
  ., 4.28
CCc1nn(CCCC(=O)NC2CCCCC2)c(=O)c2cc3occc3n12
  3.19, -1.5
CCCN(CCS(=O)(=O)N1CCNCC1)S(=O)(=O)c1ccc(F)cc1
  0.48, .

# Remaining list, next part:
# Screens in order – HIV TAR-Tat, CDC25B CDK2 inh
CC(=O)c1sc(=S)n(CCc2ccc(Cl)cc2)c1C
  ., 1.08
CC(C)(C)C1CCc2nc(NC(=O)c3cccs3)sc2C1 (configuration not stated)
  2.05, -0.35
CC1CC(C)CN(S(=O)(=O)c2cc(Br)cnc2N)C1 (configuration not stated)
  1.47, -1.92
Cc1ccc2ccc(C(Nc3ccccn3)c3ccccc3F)c(O)c2n1 (configuration not stated)
  0.35, 1.24
Cc1ccc2c(c1)sc1ncc(NC(=O)c3ccc(C(C)(C)C)cc3)c(=O)n12
  0.56, 0.36
COc1ccccc1-c1nc2c(c(=O)[nH]1)Cc1ccccc1O2
  0.72, -0.76
COc1ccccc1Nc1nc(Nc2ccccc2OC)nc(N2CCOCC2)n1
  1.39, -2.58
O=C(Cn1c(=O)oc2ccccc21)Nc1ccc2c(c1)OCO2
  -0.54, .
O=C(C1CCN(Cc2cnn(-c3ccccc3)c2-n2cccc2)CC1)N1CCN(c2ccccc2)CC1
  -0.75, -0.86
CCNC(=O)N1CCc2cc(S(=O)(=O)N3CCc4ccccc4C3)ccc21
  0.51, .
Cc1ccc(Oc2ncccc2C(=O)NC(=O)c2ccccc2O)cc1
  ., -2.65
CCCCOC(=O)c1cnn2c(C(F)(F)F)cc(-c3cccs3)nc12
  2.48, -0.07
COc1cccc(C(=O)OCc2cc(=O)n3oc(C)cc3n2)c1
  0.52, .
CCCc1cc(=O)n2nc(N3CCC(C(=O)N4CCOCC4)CC3)sc2n1
  -0.01, 0.09
CC(C)Oc1ccc(N2CC(C(=O)Nc3ccc4c(c3)OCO4)CC2=O)cc1 (configuration not stated)
  -0.38, -0.71

# Additional results.
# Screens in order – HIV TAR-Tat, CDC25B CDK2 inh
CC1=NN(C2CCS(=O)(=O)C2)C(=O)C1(Sc1ccccc1)Sc1ccccc1 (configuration not stated)
  ., 0.51
COc1ccc(-c2cnn3c(N)c(-c4ccccc4)cnc23)cc1OC
  -0.74, -0.86
CN(C)CCNC(=O)CN1C(=O)CCn2nc(-c3cn(C)c4ccccc34)cc21
  0.29, .
CCCN1CCN(c2cc3c(cc2F)c(=O)c(S(=O)(=O)c2cc(C)ccc2C)cn3CC)CC1
  -0.48, .
CCCCOC(=O)C1=C(C)NC2=C(C(=O)CC(C)(C)C2)C1c1ccc(O)c(OCC)c1 (configuration not stated)
  0.73, -0.98
Cc1cc(NC2CCCCC2)n2ncc(-c3ccc(F)cc3)c2n1
  -0.45, -0.21
CCOC(=O)CSc1ncn(-c2cc(C)nc(N)n2)n1
  0.83, -2.15
Cn1ccc2cc(S(=O)(=O)N3CCN(C(=O)Nc4ccccc4Br)CC3)ccc21
  0.61, .
CCC(CC)C(=O)Nc1cc(F)c2nc(N3CCOCC3)ccc2c1
  0.01, .
CN1C(=O)c2cc(C(=O)NCCCN3CCOCC3)nn2CC1(C)C(=O)NC1CCCCC1 (configuration not stated)
  1.24, .
CCOC(=O)c1cnn(-c2ccc(NS(=O)(=O)c3ccc(Cl)cc3)cc2)c1C(F)(F)F
  ., 1.66
NC(=O)c1ccc2c(c1)CCN2S(=O)(=O)c1ccc(Cl)cc1
  1.21, -0.63
Cc1nc2c(c(C)c1CCC(=O)NCCC1=CCCCC1)c(=O)n(C)c(=O)n2C
  0.67, -1.46
CC(C)CC(C(N)=O)N1C(=O)c2ccccc2C1=O (configuration not stated)
  ., 0.66
COc1ccc(-c2nc3ccc(Cl)cc3c(=O)o2)cc1OC
  0.87, -1.5

# (continued)
# Screens in order – HIV TAR-Tat, CDC25B CDK2 inh
Cc1c(Cc2c(Cl)cccc2Cl)c(=O)oc2cc(O)ccc12
  ., 3.03
C[C@H]1C(=O)CCC2[C@]3(C)CC[C@@]4(C)C5CC(C)(C)CC[C@]5(C)CC[C@]4(C)C3CC[C@@]21C (some centres not stated)
  1.09, .
CC(=O)/C(C=Nc1cc(C)on1)=C(\C)O
  ., 0.94
O=C(Nc1ccc(F)cc1)c1c(O)c2cccc3c2n(c1=O)CCC3
  1.18, .
c1ccc(CSc2nnnn2-c2ccccc2)cc1
  3.2, -0.76
CN(C(=O)C1CCCN(c2ncnc3c2nc2n3CCCCC2)C1)c1ccccc1 (configuration not stated)
  -0.01, .
O=C(c1cc(-c2cccnc2)n[nH]1)N1CCN(Cc2ccc3c(c2)OCO3)CC1
  1.23, .
NC(=NCCCCCCN=C(N)/N=C(\N)Nc1ccc(Cl)cc1)/N=C(\N)Nc1ccc(Cl)cc1
  0.77, .
CCOC(=O)c1cc(C)nc(Sc2ccccc2NC(=O)Nc2ccc(Cl)cc2)c1C#N
  ., -0.93
O=C1SC(Nc2ccccc2Br)C(=O)N1c1ccccc1 (configuration not stated)
  -0.5, -0.21
Cc1ccc(-c2noc(C3CCCN(S(=O)(=O)c4ccc(C)c(C)c4)C3)n2)cc1 (configuration not stated)
  0.6, .
Cc1cc(C)cc(NS(=O)(=O)c2cc(-c3csc(C)n3)ccc2C)c1
  1.76, .
O=C(OCc1cc(F)cc(F)c1)c1c(F)cccc1F
  ., -2.22
COc1cc2c(cc1NS(=O)(=O)c1ccccc1)n(C)c(=O)n2C
  0.77, .
CNC(=O)OCc1cccc(COC(=O)NC)n1
  0.03, -1.87

# The list goes on:
structure	HIV TAR-Tat	CDC25B CDK2 inh
C=C(C)CSc1nnc2c3sc4nc(N5CCOCC5)c5c(c4c3ncn12)CC(C)(C)OC5	1.53	-1.87
Cc1nnc(N2C(=O)C(O)=C(C(=O)c3ccco3)C2c2ccc(C(C)(C)C)cc2)s1 (configuration not stated)	.	-2.01
O=C(Cc1cccs1)Nc1ccc2nc3n(c(=O)c2c1)CCCC3	-0.01	-1.65
COc1ccc(CCN2C(=O)CSC2=Nc2ccc(C(C)C)cc2)cc1OC	.	0.14
Cc1ccn2c(Nc3ccc4c(c3)OCO4)c(-c3cccs3)nc2c1	.	-1.58
CCCCN(C)CCNC(=O)c1c(O)nc2cc(C)ccn2c1=O	0.65	-1.86
COC(=O)C1=C(C(=O)c2ccc(C)cc2)C(c2ccccc2OC)n2nnnc2N1 (configuration not stated)	0.61	-11.9
O=C(CCS(=O)(=O)c1cccc2nsnc12)Nc1ccccc1	2.55	-0.51
CCN1CCCC1CNC(=O)c1cc(-c2ccccn2)nc2ccccc12 (configuration not stated)	-2.74	.
O=C1c2cnccc2CN1Cc1cccc(Cl)c1	0.2	.
CC(=O)N1CCCSc2ccc(S(=O)(=O)N3CCCCC3C)cc21 (configuration not stated)	0.07	.
CCOC(=O)CSc1nnc(CSc2ncccn2)n1-c1ccccc1	0.63	-1.43
COc1cnc(CSc2nnnn2C)cc1OCC(=O)Nc1ccc(F)cc1	1.4	.
O=C(Cn1ccn(-c2ccc(F)cc2)c(=O)c1=O)Nc1ccc(Br)cc1	-0.25	.
Cc1nc2sccn2c(=O)c1NC(=O)c1ccccc1Br	1.48	.

# Next part
structure	HIV TAR-Tat	CDC25B CDK2 inh
CC(Oc1ccccc1)C(=O)n1c(=O)oc2ccccc21 (configuration not stated)	1.07	.
COc1ccc(NC(=O)CC2=NS(=O)(=O)c3ccccc3N2)c(OC)c1	1.3	.
CCc1nnc2c3ccccc3nc(Nc3cccc(O)c3)n12	0.26	-1.97
CC1=C(c2ccc(F)cc2)S(=O)(=O)NC1=NCCc1ccccc1	-0.48	.
CC(C)c1cccc(C(C)C)c1N1C(=O)c2ccc(O)cc2C1=O	.	-0.14
C=CCOC(=O)C1=C(C)NC2=C(C(=O)CCC2)C1c1ccc(OCCC)c(OC)c1 (configuration not stated)	-0.09	-1.41
Cn1c(=O)c2c(ncn2CC(O)Cn2c(Cc3ccccc3)nc3ccccc32)n(C)c1=O (configuration not stated)	.	-1.56
CC(C)CCNc1nc2c(-c3ccccc3)nnn2c2ccccc12	0.42	-0.02
O=S(=O)(c1ccc(C(F)(F)F)cn1)c1ccc(S(=O)(=O)N2CCCCC2)s1	.	-1.27
Cc1cc(C)nc(N2CCN(C(=O)CSc3nc4ccccc4nc3N3CCCCC3)CC2)n1	-0.9	0.54
CN(C)c1nc(-c2ccc(Cl)cc2)[nH]c(=O)n1	.	0.29
CCOc1ccc(S(=O)(=O)[C@H]2CS(=O)(=O)C[C@@H]2N2CCCCC2)cc1	0.2	-1.95
CCOC(=O)/C(C#N)=C/Nc1cc(C(=O)OC)ccc1C	.	-1.06
Cc1nn(CC(=O)NCc2ccccn2)c(=O)c2cc3occc3n12	3.03	-0.96
CCCCN(C)C(=O)NCc1noc2ccc(C)cc12	0.77	.

# Continuation:
structure	HIV TAR-Tat	CDC25B CDK2 inh
CC(=O)Nc1ccc(S(=O)(=O)Nc2ccc3c(c2)OCCO3)cc1Cl	.	-2.22
CCOC(=O)CCn1[nH]c(=O)c2ccccc2c1=O	.	-2.69
COC(=O)c1cc(-c2cccs2)c2c(=O)n(C)c(=O)n(C)c2n1	3.39	-4.1
CC(C)OCCCn1c(=O)c2ccccc2n2c(CCC(=O)O)nnc12	3.47	-0.34
CC(C)CC(NC(=O)Cc1ccsc1)C(=O)NNC(=O)c1ccccc1Cl (configuration not stated)	.	-1.86
CC1=C(c2ccccc2)S(=O)(=O)N=C1Nc1ccc(C)c(Cl)c1	-0.93	-7.25
Cc1ccc(S(=O)(=O)Nc2cccc(-c3ccc(S(C)(=O)=O)nn3)c2)cc1C	-0.49	.
N#C/C(=C\Nc1ccc2c(c1)OCCO2)S(=O)(=O)c1cccs1	.	0.45
O=C1NCCCN1Cc1ccc(F)cc1	.	-1.42
CC1(C)CC(=O)c2cnc(NC(=O)CSCC(=O)Nc3cccc(F)c3)nc2C1	0.54	-1.51
O=C(c1nsc2ccccc12)N1CCN(S(=O)(=O)c2ccc(F)c(Cl)c2)CC1	3.12	-1
O=C(Nc1cc(F)c2nc(N3CCOCC3)ccc2c1)C1CCC1	0.44	.
CC1CC2C3CCC4=CC(=O)C=CC4(C)[C@@]3(Cl)C(O)CC2(C)C1(O)C(=O)CO (some centres not stated)	0.21	.
Cc1cc(/C(N)=N/OC(=O)c2ccno2)no1	.	0.04
CCC1CN(C(=O)Nc2ccc3c(c2)OCCO3)c2ccccc2O1 (configuration not stated)	1.35	.

# Further results:
structure	HIV TAR-Tat	CDC25B CDK2 inh
N=C(N)SCP(=O)(c1ccccc1)c1ccccc1	.	-3.14
Cc1cc(-c2ccc(S(=O)(=O)N3CCN(C4CCCC4)CC3)s2)n[nH]1	1.07	.
CC1=C(C(=O)OCCOc2ccccc2)C(c2ccc3c(c2)OCO3)C2=C(CCCC2=O)N1 (configuration not stated)	0.46	-1.94
Cc1ccc(S(=O)(=O)NCCc2csc3nc(-c4cccs4)nn23)cc1	0.37	.
O=C(NCCCN1CCOCC1)c1nnc(Cc2ccc3c(c2)OCO3)o1	0.4	-1.41
Cc1cc(=O)oc2cc(OCc3ccc(F)cc3)ccc12	.	-0.33
CC1CCCC(NC(=O)Cn2ncn3cccc3c2=O)C1C (configuration not stated)	-0.45	-1.16
CC(=O)N1c2c(cc(Br)cc2S(=O)(=O)N2CCN(C3CCCCC3)CC2)CC1C (configuration not stated)	-0.13	-0.27
O=C(c1ccc2c(c1)OCO2)N(Cc1ccco1)C1(C(=O)NC2CCCCC2)CCCCC1	.	-1.33
O=C1C=CC(=C(c2ccc(O)cc2)c2ccc(O)cc2)C=C1	-0.04	.
COc1ccc(CN2CCc3nc(N4CCN(c5ccc(F)cc5)CC4)ncc3C2)c(OC)c1	0.07	.
CC(C)(C)NC(=O)Oc1ccccc1	.	-0.66
O=[N+]([O-])c1cnc(Sc2ccc(C(F)(F)F)cn2)s1	.	-1.92
COc1cc2snnc2c2nonc12	.	-0.95
NC(=O)c1cc(S(=O)(=O)NCCN(Cc2ccco2)C2CCCC2)cs1	0.6	.

# 2 compounds picked at random from those above, as already listed:
structure	HIV TAR-Tat	CDC25B CDK2 inh
O=C(Cn1c(=O)oc2ccccc21)Nc1ccc2c(c1)OCO2	-0.54	.
COc1ccc(OC)c(NC(=O)Nc2nnc(N3CCCC(C)C3)s2)c1 (configuration not stated)	0.4	-2.66

# Screening data as filed in PubChem BioAssay.
